Source: PubChem
CtBP-E1A inh = blocks the CtBP interaction with E1A | AlphaScreen GST-E1A/His-CtBP binding, 1536-well; active compounds read low; control for the full effect not named in the record | activity change, % (no concentration beside the values) | actives 0.49% (n = 340,000) | AID 651724; in the data active means activity change below about -65%; inconclusive means about -30% to -65%; inactive means above about -30%; note: % is set by controls: 0 for no effect and ±100 for the full control effect
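Protein mix (5X: 125 nM each GST-E1A, His-CtBP) was incubated with pinned compound 2 h at 37 deg C in dark, in 50 mM Tris pH 8.0 buffer with 300 mM NaCl. Glutathione donor and nickel acceptor beads followed; AlphaScreen signal read after 1 h.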
D2 ag = human D2 receptor agonism in beta-arrestin assay; P14416; DiscoveRx PathHunter D2 beta-arrestin, luminescence, 90 min; 100% = 57 uM dopamine signal; activation, % (no concentration beside the values); actives 0.084% (n = 360,000); in the data active = activation above about 40%; inconclusive = about 15% to 40%; inactive = below about 15%; note: compound concentration not given in the record; the text of the record calls up to 30% inactive
Target sequence (P14416 whole entry, looked up): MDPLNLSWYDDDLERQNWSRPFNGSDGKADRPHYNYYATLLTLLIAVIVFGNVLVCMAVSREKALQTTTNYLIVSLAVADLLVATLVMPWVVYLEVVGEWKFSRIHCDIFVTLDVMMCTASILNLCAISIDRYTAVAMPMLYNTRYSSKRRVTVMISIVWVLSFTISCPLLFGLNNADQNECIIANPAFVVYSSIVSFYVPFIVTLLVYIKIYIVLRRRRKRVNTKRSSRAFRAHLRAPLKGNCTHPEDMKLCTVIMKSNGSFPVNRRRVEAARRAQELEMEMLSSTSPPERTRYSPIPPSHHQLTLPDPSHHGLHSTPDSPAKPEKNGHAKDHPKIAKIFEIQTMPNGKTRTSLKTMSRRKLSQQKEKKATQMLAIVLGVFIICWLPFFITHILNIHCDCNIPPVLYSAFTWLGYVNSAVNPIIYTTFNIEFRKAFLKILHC
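Agonist mode: compounds alone added to overnight-plated D2 PathHunter cells for 90 min at 37 C, with 57 uM final dopamine (EC100) defining full response. Beta-arrestin recruitment detected by chemiluminescent reagent, read after 1 h at ambient temperature.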
PINK1 modulator = modulators of PINK1 expression. AID 624263. PINK1 immunofluorescence, high-content cytometry, 24 h. actives 0.2% (n = 410,000). Potency, µM (top dose mostly 76.6 µM), inactives show at the top dose activation (PINK1 increase), actives largely listed as activators; active = well fitted activation curve with a large enough effect; inconclusive = small, poorly fitted or top-dose-only effect; inactive = flat fitted curve, though single readings scatter; cell line not stated here;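 note: potency is the fitted concentration of half-maximal effect; % of control where 0% means no effect; nearly all actives have a fitted effect of over 65% in size; a mitochondrial uncoupler was the plate control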
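A stable cell line was treated with compounds at 5 concentrations for 24 hours, with CCCP as control. PINK1 levels and mitochondrial localization were measured by immunofluorescence with mitochondrial, cell and nuclear markers after fixation, read by laser-scanning cytometry.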
Six1-Eya2 blk = inhibitors of human Six1/Eya2 interaction. Q15475+O00167. AlphaScreen GST-Six1/His-Eya2 binding, biochemical; active compounds read low; control for the full effect not named in the record. activity change, % (concentration not given with the values). actives 0.56% (n = 360,000); in the data active = activity change below about -65%; inconclusive = about -30% to -65%; inactive = above about -30%; note: % is set by controls: 0 for no effect and ±100 for the full control effect
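Six1/Eya2 binding was read as AlphaScreen signal after compounds were pinned into GST-Six1 plus His-tagged Eya2 (5X stock 250/500 nM) in pH 8.0 Tris/NaCl/TCEP buffer, beads added, then incubated 1 h, 37 C, dark.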
TRPML1 blocker = blocks the human TRPML1 channel. actives 0.02% (n = 390,000). activity change, negative = inhibition, % (test concentration not listed). TRPML1-inducible cells, Ca2+ dye fluorescence, FDSS; active compounds read low; inhibition of EC80 agonist-evoked calcium signal; in the data active means activity change below about -50%; inconclusive means about -30% to -50%; inactive means above about -30%;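 note: stimulus is agonist 54-4 at its EC80 concentration; % is set by controls: 0 for no effect and ±100 for the full control effect; compound concentration not given in the record; the text of the record puts the active cut at -80%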
Target sequence (Q9GZU1 whole entry, looked up): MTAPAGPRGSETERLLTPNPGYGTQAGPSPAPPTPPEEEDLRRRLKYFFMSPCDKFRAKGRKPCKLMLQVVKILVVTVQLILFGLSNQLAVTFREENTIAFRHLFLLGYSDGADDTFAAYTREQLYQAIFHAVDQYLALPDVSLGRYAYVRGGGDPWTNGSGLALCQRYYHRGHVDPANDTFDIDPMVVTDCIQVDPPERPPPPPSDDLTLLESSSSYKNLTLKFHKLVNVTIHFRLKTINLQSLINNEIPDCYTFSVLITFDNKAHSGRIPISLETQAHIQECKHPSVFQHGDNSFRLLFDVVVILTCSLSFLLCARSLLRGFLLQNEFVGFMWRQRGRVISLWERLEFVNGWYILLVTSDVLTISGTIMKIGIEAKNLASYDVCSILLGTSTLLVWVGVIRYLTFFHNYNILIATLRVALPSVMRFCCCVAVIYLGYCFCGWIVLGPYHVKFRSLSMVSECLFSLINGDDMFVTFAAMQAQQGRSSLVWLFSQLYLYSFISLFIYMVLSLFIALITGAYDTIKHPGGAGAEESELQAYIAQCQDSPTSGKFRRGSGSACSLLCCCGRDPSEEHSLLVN
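Tet-induced TRPML1-DL cells loaded with Ca8 no-wash calcium dye were read kinetically on FDSS. Compound addition was followed by EC80 agonist 54-4 (4 uM final); inhibition was read over 110 s.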
TRPML1 ag = human mucolipin-1 channel agonism. TRPML1-expressing cells, Ca2+ dye fluorescence, FDSS; host cell line not named in the record; reference of the full effect not given here. activation, % (no concentration beside the values). actives 0.12% (n = 410,000). AID 624414; in the data active = activation above about 50%; inconclusive = about 30% to 50%; inactive = below about 30%; note: 0% is about no effect; the text of the record puts the active cut at 80%
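In this qHTS format, compounds were pin-transferred onto Ca8-dye-loaded TRPML1-DL cells induced with Tet overnight, and intracellular Ca2+ fluorescence was recorded kinetically for 110 s after a 10 s baseline. A subsequent 4uM final 54-4 (EC80) addition followed by a second 110 s read served as the antagonist phase.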
Numbers without * were called inactive; ? = inconclusive; / = no result given; & = joins results of further samples; [ ] = dose if it differs, or a comment.

Compound,TRPML1 ag,TRPML1 blocker,PINK1 modulator,D2 ag,CtBP-E1A inh,Six1-Eya2 blk
CCCC12CN3CC(CCC)(CN(C1)C3c1ccccc1)C2=O (centres undefined),-1.4,-5,1.1%,/,/,/
CC(=O)C1=C(O)CC(c2ccccc2)CC1=NCCc1c(C)[nH]c2ccc(C)cc12 (centres undefined),1.3,27,12%,-2.5,-19,1
O=C(NCc1ccc2c(c1)OCO2)c1ccncc1,-0.2,-16,56%[38.3 µM],-1.0,12,0
CCOc1ccccc1OCCCC(=O)Nc1cc(S(=O)(=O)N2CCOCC2)ccc1OC,-1.1,10,2.5%,-1.6,0,1
O=C(CCC1N=C2c3ccccc3N=C(SCC(=O)Nc3ccc(F)cc3)N2C1=O)NCc1ccco1 (centres undefined),-0.1,19,1.1%,/,/,/
CCOc1ccccc1N1C(=O)CC(Sc2ncccc2C(=O)O)C1=O (centres undefined),0.4,-7,/,-1.3,9,3
O=C(CCn1nc(-c2ccc(Cl)cc2)c2ccccc2c1=O)Nc1ccc(OC(F)(F)F)cc1,1.4,14,4.7%,/,/,/
CC1(C)CC(=O)C=C(c2ccc(-c3ccc4[nH]ccc4c3)cc2)C1=O,-0.6,-9,1.9%,-11,-12,-23
O=C(CCc1ccccc1)NNC(=O)Nc1cccc(Cl)c1,-0.9,42,1.0%,-0.6,6,4
O=C(NCCCCNC(=O)C1CCCC1)C1CCCC1,-0.8,2,5.3%[38.3 µM],-3.9,8,0
CCN(CC)S(=O)(=O)c1ccc(-c2nnc(SCC(=O)Nc3ccc(OC)cc3)o2)cc1,-0.2,5,1.1%,-2.0,5,-1
COC(=O)c1ccccc1S(=O)(=O)Oc1ccc(-c2ccc(C(=O)O)cc2)cc1,-0.3,2,1.2%,2.0,-7,1
O=S(=O)(c1ccccc1)c1ncc(C(F)(F)F)cc1Cl,0.9,-6,-2.4%,-2.3,12,-1
CCCCn1c(N)c(N(CCC(C)C)C(=O)COC(=O)c2ccc([N+](=O)[O-])s2)c(=O)[nH]c1=O,0.8,10,?,7.5,0,-6
Cc1c(Cl)c(C(=O)N2CCCCCC2)nn1C,0.1,58,1.0%,-1.0,-10,17
CC(=O)c1c(C(C)=O)c(C)n(-c2cccc3cccnc23)c1C,-0.2,24,0.6%,-3.0,0,0
C=CCn1c(COc2ccc(Cl)cc2)nnc1SCC(=O)c1c(N)n(C)c(=O)n(C)c1=O,0.1,6,0.4%,-2.5,-13,13
CC(C)CN(C)Cc1c(C(=O)N2CCc3ccccc3C2)nc2ccc(Cl)cn12,1.5,-7,0.3%,-1.9,1,-12
COC(=O)C1=C(C)N(Cc2cccnc2)C(=O)/C1=C\c1sccc1C,2.0,-4,0.5%,-3.3,12,-12
N#Cc1nc(-c2ccccc2)oc1N1CCN(C(=O)c2ccco2)CC1,-0.8,3,3.0%,-1.3,0,9
O=C(c1ccncc1)N1CCN(C2CCC(c3ccccc3)CC2)CC1 (centres undefined),0.0,1,1.6%,-3.5,-9,-14
CC(C)(C)OC(=O)NOCC(=O)N(Cc1ccccc1)CC(O)COc1ccccc1 (centres undefined),-0.1,-6,0.8%,2.1,0,10
CC(=O)Nc1nnc(/C=C/c2cccc([N+](=O)[O-])c2)s1,-0.8,-6,2.2%,-0.9,1,4
CC(O)c1nc2ccccc2n1CCCCOc1ccccc1 (centres undefined),-0.1,-7,0.1%,3.6,8,0

Compound profiles, as listed above. Order of screens: TRPML1 ag | TRPML1 blocker | PINK1 modulator | D2 ag | CtBP-E1A inh | Six1-Eya2 blk
Listed for CC(=O)Nc1nnc(/C=C/c2cccc([N+](=O)[O-])c2)s1 : -0.8 | -6 | 2.2% | -0.9 | 1 | 4
Listed for O=C(CCC1N=C2c3ccccc3N=C(SCC(=O)Nc3ccc(F)cc3)N2C1=O)NCc1ccco1 (centres undefined) : -0.1 | 19 | 1.1% | / | / | /
Listed for O=S(=O)(c1ccccc1)c1ncc(C(F)(F)F)cc1Cl : 0.9 | -6 | -2.4% | -2.3 | 12 | -1

Other entries follow:
Compound,TRPML1 ag,TRPML1 blocker,PINK1 modulator,D2 ag,CtBP-E1A inh,Six1-Eya2 blk
Cc1ccc(C(C)(C)C)cc1S(=O)(=O)Nc1cccc(C(=O)N2CCN(c3ccccn3)CC2)c1,3.9,4,3.4%,-2.0,-5,-15
Cc1cn(CC(=O)NCCCn2ccnc2)c(=O)[nH]c1=O,-0.2,-9,0.7%,-1.4,3,0
O=C(O)C1CC(=O)N(Cc2ccc3c(c2)OCO3)C1 (centres undefined),2.8,24,1.5%[38.3 µM],-1.0,6,0
Cc1ccc2nc(NC(=O)CSCC(=O)OCC(=O)c3ccccc3)sc2c1,2.3,-2,2.3%,-3.8,5,1
CCOc1ccc(NC(=O)CN(C)C(=O)CCN2C(=O)C3CC=CCC3C2=O)cc1OCC (centres undefined),0.9,-8,0.8%,4.6,-8,-5
Cn1cnnc1SC1CCCCC1NS(=O)(=O)c1ccccc1 (centres undefined),-0.2,61,2.7%,-4.5,-10,2
Cc1ccc(NC(=O)c2ccc(OCC3CCCO3)cc2)c(C)c1 (centres undefined),1.3,10,0.1%,1.0,3,8
CC(C)(C)N(Cc1ccccc1)C(=O)CSc1nc2ccccc2c(=O)[nH]1,0.6,29,7.1%[38.3 µM],-3.3,2,-4
O=C(c1ccco1)N1CCN(CCCCOc2cccc3ccccc23)CC1,1.4,-9,1.2%,?,-16,-21
CCOC(=O)C1=C(Nc2ccccc2)CC(C)(O)C(C(=O)OCC)C1c1ccccc1 (centres undefined),0.0,0,-1.7%,1.1,-5,-3
CSc1nnc2c3cc(C)ccc3n(Cc3ccccc3)c2n1,-0.5,-2,7.9%,1.9,9,7
COc1ccc(-n2nc(C)cc2Nc2ccccc2C(=O)O)cc1,1.5,28,-0.5%,5.4,/,?
C=CCSc1nnc2c(n1)OC(c1cccnc1)N(C(C)=O)c1ccccc1-2 (centres undefined),1.9,16,1.2%,-3.3,-1,0
CSc1ccc(-c2nc3cccc(C)n3c2Nc2ccc3c(c2)OCO3)cc1,2.6,16,1.9%,/,/,/
O=c1cc(Cc2ccc([N+](=O)[O-])cc2)[nH]c(=O)[nH]1,-0.2,-21,-3.9%,-5.0,14,9
CN(Cc1ccccc1)C(=O)c1ccc(NC(=O)Cc2cccc([N+](=O)[O-])c2)cc1,-0.6,-22,2.3%,-2.2,0,-10
Nn1c(SCC(=O)Nc2ccc(F)cc2)nnc1-c1cccnc1,-0.9,6,74%[38.3 µM],-1.7,2,-2
C[C@@]12CCC3[C@@](CCC4[C@@]3(C)CCC[C@@]4(C)C(=O)NCc3ccccc3)(CC1=O)C2 (some centres undefined),-0.8,54,1.1%,-0.5,11,0
CCCNC(=O)CC(NS(=O)(=O)c1ccc(Cl)cc1)c1ccco1 (centres undefined),-0.5,-3,2.3%,0.1,-7,10
O=C(O)CCN(CCC(=O)O)S(=O)(=O)c1ccccc1,0.3,-5,0.9%,-0.1,6,1
Cc1nc2ccccc2nc1SCC(=O)c1ccccc1,1.1,16,-1.5%,0.6,24,16
Cc1cccc(O)c1C,/,/,-0.1%,-8.9,4,8
O=C(CSc1nnc2c(n1)[nH]c1ccc(F)cc12)Nc1ccccc1F,0.7,9,5.1%,6.0,-25,-6
COc1ccc(CN(C(=O)c2ccco2)c2ccc(C)cc2)cc1OC,-0.1,-16,-5.9%,-3.1,2,-5
CCn1c(SCc2ccc(F)cc2)nnc1-c1nn(-c2ccccc2)ccc1=O,0.2,-7,-1.1%,-0.9,-6,-1
CSc1nc(SCCO)c2sc3nc(-c4ccco4)c4c(c3c2n1)CC(C)(C)OC4,-0.3,-26,18%,-4.7,4,-5
COc1ccccc1-c1coc2cc(OC(=O)N3CCOCC3)ccc2c1=O,4.7,4,0.0%,-2.2,-1,1
CCOC(=O)C1(CCCc2ccccc2)CCN(C(=O)CN2CCOC2=O)CC1,0.2,1,0.9%,-2.6,1,5
CCOC(=O)C1(CCCc2ccccc2)CCN(C(=O)CCOC)CC1,0.2,13,1.2%,-0.6,0,-2
COC(=O)c1cc(NC(=O)Nc2cccc(Cl)c2)ccc1Cl,1.4,5,15%[38.3 µM],1.7,3,2
Cc1ccc(SCc2ccc(C(=O)Nc3ccccc3C(=O)NC(C)C)cc2)cc1,1.3,23,1.7%,-1.4,-3,6
CN(C(=O)Nc1cnc2ccccc2c1)c1ccccc1,-0.4,-18,0.0%,-2.5,-2,9
CCN1C(=O)/C(=C2/C=Cc3ccccc3N2C)OC1=S,-1.0,10,4.2%,-4.4,0,-12
O=C(CSc1nc(-c2ccccc2)c(-c2ccccc2)[nH]1)Nc1ccc2c(c1)OCO2,0.8,39,8.6%,5.0,0,-6
CCOC(=O)C1=C(c2ccccc2)N=C2SCC(=O)N2C1c1ccc(O)c(OC)c1 (centres undefined),-0.3,-6,-2.1%[38.3 µM],-4.0,6,-2
CCn1c(SCC(=O)NC2CC2)nnc1-c1ccccc1OC,-0.4,16,-1.0%,1.3,5,3
Nc1cccc2cnccc12,0.6,1,/,3.5,5,3
O=S(=O)(c1cccc2nsnc12)N1CCc2ccccc21,1.5,-7,6.6%[38.3 µM],-2.2,-14,-12
Cn1c(N)c(C(=O)COC(=O)c2ccc(Cl)c(S(=O)(=O)N3CCCCC3)c2)c(=O)n(C)c1=O,0.0,-6,2.0%,-1.2,15,9
O=C(c1ccoc1)N1CCC(CO)(CCc2ccccc2)CC1,-0.1,-1,0.5%,1.0,5,2
Cc1cc(CNC(=O)C2(C(F)(F)F)C/C(=C\CCO)CCCO2)nn1C (centres undefined),-0.2&1.4,12&-9,0.9%,0.3,6,2
Cc1nn(-c2ccccc2)c(C)c1/C=N\N1CCN(c2ccc(Cl)cc2)CC1,1.3,2,11%,-4.3,-2,-11
O=C(/C=C/[C@H]1O[C@@H](n2cnc3c(NC(=O)c4ccccc4)ncnc32)[C@H](O)[C@@H]1O)NCc1cccc2ccccc12,-0.7,/,0.0%,-1.5,-22,7
Cc1c(C(=O)C(=O)N2CCN(Cc3ccc4c(c3)OCO4)CC2)c2ccccc2n1C,5.1,17,-2.0%,2.2,/,-12
Cn1c(=O)oc2cc(S(=O)(=O)N3CCC(C(=O)NCc4ccc(F)cc4)CC3)ccc21,-0.1&-0.6,-15&0,9.8%&8.0%,-0.4,-2,-8
COc1cccc(N2CCN(C(=O)c3cc4c(s3)CCCCC4)CC2)c1,-0.9,10,1.5%,-3.3,/,-13
